NPYLR7 agonist = activates Aedes aegypti NPYLR7 receptor. actives 0.15% (n = 270,000). AID 1259423. activation, % at 10 µM. HEK293T NPYLR7/Galpha15, GCaMP6s calcium fluorescence; in the data active means activation above about 40%;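 further: 0% = vehicle and 100% = reference agonist at the receptor; some compounds past the cut are filed as inactive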
NPYLR7 agonist max-min = second read-out of NPYLR7 agonist, no call of its own (marks repeat the call); activation, %; measured here: Max-Min RFU normalised activation; some inactives read as strong as hits;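 span of the calcium signal over five minutes; 0% = vehicle and 100% = native peptide agonist; compound fluorescence can raise it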
Active calls of the source: *; & = joins results of further samples.

SMILES	NPYLR7 agonist	NPYLR7 agonist max-min
O=C(NC1CC1)C1CCN(C2CCN(C(=O)COc3ccccc3Cl)CC2)CC1	4.7	9.2
CN(C)Cc1nc(C(=O)N[C@H]2C[C@H]3C(=O)N(C)CC(=O)N3C2)cs1	4.6	-2.9
CCc1nc2c(OCC(N)=O)cccn2c1N(C)C(=O)CC(C)C	-14.7	-8.9
O=C(NCCC(c1ccccc1)c1ccccc1)c1cc(-c2ccco2)nn1-c1ccc(F)cc1	0.1	9.8
COc1ccc(CN2CCCC(CNC(=O)c3ccc(-c4ccccc4)cc3)C2)cc1O (configuration not stated)	-8.5&8.6	-9.9&2.0
COc1cc(OC)c(OC)cc1CN1CCN(Cc2ccc(C)o2)C(CCO)C1 (configuration not stated)	11.5	6.7
COC(=O)CN1CC2(CCN(C(=O)C(C)ON=C(C)C)CC2)OC1=O (configuration not stated)	0.8	14.4
CCO[C@H]1COC[C@@H]1NC(=O)Cc1c(C)[nH]c2ccccc12	-6.0	-7.0
CC(C)(C)n1ncc2c(=O)n(NC(=O)c3cccc(Br)c3)cnc21	7.0	3.3
CCC(C)NC(=O)c1cc(NC(=O)Nc2ccc(F)cc2F)ccc1N1CCN(c2ccccc2OC)CC1 (configuration not stated)	19.2	26.5
CCOC(=O)C1(CC2CCCCO2)CCN(C(=O)CCc2nc3ccc(F)cc3[nH]2)CC1 (configuration not stated)	3.7	2.1
CC(=O)Nc1cnn(-c2ccc(C(=O)NCc3scnc3-c3ccccc3)cc2)c1	33.9	22.4
FC(F)(F)c1nnc2ccc(N3CCCCCC3)nn12	5.6	3.4
CCSCCOC(=O)C1=C(C)N(C)C(=O)NC1c1ccc([N+](=O)[O-])cc1 (configuration not stated)	7.5	1.3
O=S(=O)(c1ccc(Br)cc1Cl)N1CCNCC1	3.5	-0.3
CCCC(=O)C1=C(c2ccc(Cl)c(Cl)c2)N(C(=O)CCC)n2cnnc2S1	2.7	-1.0
CCOC(=O)N1CCN(CC(=O)N2N=C(c3cccc(C)c3)CC2c2ccc(OC)cc2OC)CC1 (configuration not stated)	1.7	10.8
CCc1nnc(SCC(=O)N(c2ccccc2)C(C)C)n1-n1cccc1	4.2	2.1
Cc1nn(CC(=O)NCC2CCCO2)c(=O)c2cc3occc3n12 (configuration not stated)	7.3	4.3
O=C(CC1c2cccnc2C(=O)N1c1ccccc1)Nc1ccc(C(=O)O)cc1 (configuration not stated)	1.4	4.3

Reprinted from the part before: 5 entries, followed by the next part.
SMILES	NPYLR7 agonist	NPYLR7 agonist max-min
CCCC(=O)C1=C(c2ccc(Cl)c(Cl)c2)N(C(=O)CCC)n2cnnc2S1	2.7	-1.0
CCOC(=O)N1CCN(CC(=O)N2N=C(c3cccc(C)c3)CC2c2ccc(OC)cc2OC)CC1 (configuration not stated)	1.7	10.8
CCc1nnc(SCC(=O)N(c2ccccc2)C(C)C)n1-n1cccc1	4.2	2.1
Cc1nn(CC(=O)NCC2CCCO2)c(=O)c2cc3occc3n12 (configuration not stated)	7.3	4.3
O=C(CC1c2cccnc2C(=O)N1c1ccccc1)Nc1ccc(C(=O)O)cc1 (configuration not stated)	1.4	4.3
CCOCc1ccccc1NC(=O)c1ccc(Oc2ccncc2)cc1	2.4	0.6
COc1ccccc1C(C)NC(=O)c1cc(C(C)C)nc2c1cnn2C(C)C (configuration not stated)	-0.1	-3.2
CCNC(=S)n1ncc(C(=O)OCC)c1N	5.5	5.3
COc1ccccc1/C=C1N=C(/C=C/c2ccc(C)cc2)OC\1=O	0.4	-3.7
COc1cc(CN2CCCN(c3ccnc(C)c3)CC2)cc(Cl)c1O	3.2	3.8
CC1(C(=O)NS(=O)(=O)c2cccc(F)c2)CCN1C(=O)CC1CCCC1 (configuration not stated)	6.0	2.8
Cc1ccc2c(C)c(C(=O)N3CCCCC3CCc3ccccn3)oc2c1C (configuration not stated)	8.7	4.8
O=C(NC1CCCC[C@H]1N(Cc1ccc(Cl)cc1)C(=O)c1ccccc1)C1CCCN(C(=O)c2cccc(Cl)c2)C1 (some centres not stated)	2.0	8.8
CC(C)(C)c1ccc(C(=O)Nc2nnc(SCC(=O)c3ccc(OCc4ccccc4)cc3)s2)cc1	0.1	0.2
N#Cc1c(Cl)nsc1N1CCOC(c2ccccc2)C1 (configuration not stated)	-0.1	13.0
Cc1cc(=O)c(C(=O)Nc2ccn(C)n2)nn1-c1ccc(Cl)cc1	4.8	0.5
Cc1c(C(=O)NC(C)Cc2ccco2)[nH]c2c1C(=O)CC(C)(C)C2 (configuration not stated)	-2.3	-3.6
C=CCN(CC=C)CC(=O)Nc1sc2c(c1C(N)=O)CCCC2	-1.7	-2.8
CN(C)C=NN1CC(=O)C(c2nc3ccccc3s2)C1=N (configuration not stated)	2.4	0.6
COc1ccccc1-n1c(SCc2nc(C(=O)NCCN(C)C)cs2)nnc1-c1ccccc1Cl	18.1	12.8
Cn1c(=O)[nH]c(=O)c2c1nc(SCc1ccc(F)cc1)n2Cc1ccccc1Cl	0.9	13.8
CN(Cc1ccccc1)Cc1nc2c(c(=O)n(C)c(=O)n2C)n1Cc1ccc(F)cc1	-17.1	-18.2
COc1cc(/C=N\n2cnnc2)cc(Br)c1OCc1ccc(Cl)cc1Cl	-15.4	-22.8
COc1ccc(-c2cc(N)nc3[nH]ccc23)cc1CNC1CCCC1	14.7	3.2
CCCc1c(C(=O)NCC2CCCO2)cnn1-c1ccccc1C (configuration not stated)	14.5	23.5

Complete entries, looked up by structure. Order of values: NPYLR7 agonist	NPYLR7 agonist max-min
`COc1cc(CN2CCCN(c3ccnc(C)c3)CC2)cc(Cl)c1O` across the screens: 3.2	3.8
`Cc1ccc2c(C)c(C(=O)N3CCCCC3CCc3ccccn3)oc2c1C` (configuration not stated) across the screens: 8.7	4.8
`CN(C)C=NN1CC(=O)C(c2nc3ccccc3s2)C1=N` (configuration not stated) across the screens: 2.4	0.6

Other structures:
SMILES	NPYLR7 agonist	NPYLR7 agonist max-min
COc1ccccc1NC(=O)c1nnn(CC(=O)Nc2ccc(C)cc2C)c1N	-8.0	-14.5
CN(CC1CCCCO1)C(=O)c1cc(COc2cncc(Cl)c2)on1 (configuration not stated)	-0.2	-3.2
Cc1cc(CN2CCN3C(=O)CNC(=O)C3C2)ccc1N1CCCC1 (configuration not stated)	1.5	5.8
CCn1cc(C(=O)Nc2nccs2)c2nn(-c3ccccc3)c(=O)c-2c1	5.6	4.9
CC1=C(/C=C/C(C)=C/C=C/C(C)=C/C=C/C=C(C)/C=C/C=C(C)/C=C/C2=C(C)C(=O)CCC2(C)C)C(C)(C)CCC1=O	-5.2	-6.2
CCCN(C)c1nc(-c2ccccc2)nc2c1CN(S(=O)(=O)c1ccc(C(C)(C)C)cc1)CC2	-4.6	-4.1
CSc1ccc(CC(=O)NCc2nc(-c3ccccc3NC(=O)C3CCC3)oc2C)cc1	14.9	1.2
O=C(CN1C(=O)C2SCCN2C(=O)c2ccccc21)NNc1nccc(C(F)(F)F)n1 (configuration not stated)	0.0	7.3
CC1CN(C(=O)CN2CCc3sccc3C2c2cccc(F)c2)CCN1C(=O)C1C[C@H]1c1ccccc1 (some centres not stated)	5.0	-5.4
N#CC1CN(C(=O)c2cc(Cl)ccn2)CCN1Cc1ccccc1 (configuration not stated)	51.9	23.6
COc1ccc(COn2c(=O)c(C)[n+]([O-])c3ccccc32)cc1OC	17.7	7.3
Cc1ccccc1N1OC2C(=O)N(c3ccccc3)C(=O)C2C1c1ccco1 (configuration not stated)	-2.8	-8.3
CN(Cc1ccc2c(c1)OCCO2)CC(O)COc1ccc(Cl)cc1Cl (configuration not stated)	6.4	4.9
CCc1nc(NC(=O)[C@H]2[C@@H](C(=O)OC)[C@H]3C=C[C@@H]2C3)n[nH]1	-12.0	-22.5
CCOc1ncccc1NCc1c(OC)ncnc1OC	-8.2	-10.1
COc1ccc(S(=O)(=O)N2CCOC23CCN(C(=O)c2ccc(C)c([N+](=O)[O-])c2)CC3)cc1	5.7	0.2
Cn1c(-c2ccccc2)nc2cnc(Nc3ccc(F)c(Cl)c3)cc21	-1.5	-1.3
CC1CN(Cn2nc(-c3ccccc3F)oc2=S)CC(C)O1 (configuration not stated)	1.7	10.4
Cc1cc(C)nc(N/N=C\c2cccc([N+](=O)[O-])c2)n1	-3.3	-9.4
CC(NCc1ccc(S(N)(=O)=O)cc1)C(=O)Nc1ccccc1 (configuration not stated)	5.8	5.5
O=C(COC(=O)C1CCCN1S(=O)(=O)c1ccccc1F)Nc1ccc([N+](=O)[O-])cc1 (configuration not stated)	1.9	1.9
Cc1ccc(NS(=O)(=O)c2ccccc2C#N)c(F)c1	0.1	0.9
Cc1ccc(C)c2c(C)c(C(=O)N(CC(N)=O)C3CCCC3)oc12	-24.8	-27.4
CC1CC1C(=O)Nc1ccccc1CS(=O)(=O)c1ccccc1 (configuration not stated)	6.7&-3.8	4.2&-8.4
Cc1ccccc1C(=O)Nc1ccc(-n2nc(OCC(C)C)nc2-c2ccc(C(F)(F)F)cc2)cc1	-5.5	-3.4
Clc1ccc(OCCSc2ncnc3nc[nH]c23)cc1	-1.3	4.5
O=C(Cc1ccc2c(c1)OCO2)Nc1ccc2sccc2c1	8.7	3.8
COc1cc(-c2nc(C)c(C(C)=O)n2O)ccc1OCC(=O)Nc1cccc(C(F)(F)F)c1	8.2	8.6
CC1(C)Cc2c(sc(N3C(=O)C4CC=C(Cl)CC4C3=O)c2C#N)CO1 (configuration not stated)	6.1	3.2
O=C(NCCN1CCn2cc(OCc3ccccc3)c(=O)cc2C1=O)c1cccc(F)c1	9.5	1.4
CC1N(C)c2cc3c(cc2C1(C)C)P(=S)(N1CCOCC1)OC(c1ccc(F)cc1)=N3 (configuration not stated)	-10.3	-13.2
CC(C(=O)Nc1ccccc1C(F)(F)F)n1cnc2c(N(C)C)ncnc21 (configuration not stated)	5.3	4.1
CCOc1ccc(NC(=O)Cn2nc(SC)c(-c3nc(-c4ccc(OC)cc4)no3)c2N)cc1	2.6	-1.5
CN1C(=CC(=O)c2ccccc2NS(=O)(=O)c2cccc([N+](=O)[O-])c2)C(C)(C)c2ccccc21	0.3	-3.7
Cc1cc(C)n(CCNc2nc3ccccc3s2)n1	1.6	-0.8
Cc1cccc(-c2nc3cccc(C)n3c2NCc2ccccc2)c1	1.3	2.8
O=C(c1ccccc1)c1c[nH]c2cc3c(cc2c1=O)OCCO3	-2.2	-0.9
CC(C=CC1=C(C)CCCC1(C)C)=NNC(=O)COc1cc(C)on1	-4.6	-6.4
COc1ccc(CC(=O)NCCn2ncc3c(N4CCOCC4)nc(SC)nc32)cc1	3.3	2.8
Cc1ccc(C)c(S(=O)(=O)Nc2ccc(Nc3nc(C)cc(N4CCCC4)n3)cc2)c1	11.4	6.4
COc1ccc(CN(Cc2ccco2)C(=O)C2CCCC2)cc1OCc1nc(CO)cs1	7.2	11.2
CN(c1ccc(F)c(F)c1)S(=O)(=O)c1ccc(CCC(=O)O)cc1	7.6	5.4
CN(C)C(=O)c1ccccc1Sc1ccccc1Br	-1.6	-2.6
Cc1cc([N+](=O)[O-])nn1CC(=O)Nc1ccc2c(c1)OCO2	-0.8	-4.8
CN(CC1CC1)C(=O)c1cccnc1Nc1ccccc1F	8.9	6.7
Cc1ccc(OCCN(C)C(=O)c2cnc3n(c2=O)CCS3)cc1	2.8	1.9
CCCCNCC(=O)N(Cc1ccccc1)Cc1ccc(C)s1	-9.2	-19.1
COc1ccc2c(c1)c(C(=O)N1CCN(c3ccccc3)CC1)c(C)n2-c1ccccc1	-7.0	-12.2
Cc1cc(N2CCC(C(=O)N3CC(C)OC(C)C3)CC2)nc(N)n1 (configuration not stated)	11.7	11.2

Some of these compounds in order of number of heavy atoms, lowest first:
SMILES	NPYLR7 agonist	NPYLR7 agonist max-min
Cc1cc([N+](=O)[O-])nn1CC(=O)Nc1ccc2c(c1)OCO2	-0.8	-4.8
CCCCNCC(=O)N(Cc1ccccc1)Cc1ccc(C)s1	-9.2	-19.1
Cc1cc(N2CCC(C(=O)N3CC(C)OC(C)C3)CC2)nc(N)n1 (configuration not stated)	11.7	11.2

By substructure, the compounds so far with a thiophene ring, fused or not
SMILES	NPYLR7 agonist	NPYLR7 agonist max-min
C=CCN(CC=C)CC(=O)Nc1sc2c(c1C(N)=O)CCCC2	-1.7	-2.8
CC1CN(C(=O)CN2CCc3sccc3C2c2cccc(F)c2)CCN1C(=O)C1C[C@H]1c1ccccc1 (some centres not stated)	5.0	-5.4
O=C(Cc1ccc2c(c1)OCO2)Nc1ccc2sccc2c1	8.7	3.8
CC1(C)Cc2c(sc(N3C(=O)C4CC=C(Cl)CC4C3=O)c2C#N)CO1 (configuration not stated)	6.1	3.2
CCCCNCC(=O)N(Cc1ccccc1)Cc1ccc(C)s1	-9.2	-19.1

High-throughput results (PubChem)

Some of the compounds tested, so the mix of outcomes need not match the whole.
